Compound activity: PubChem BioAssay, several laboratories
Mtb hypoxia inh: PubChem AID 1159583 | M. tuberculosis hypoxia-regulated fluorescent reporter, fluorescence | fluorescence inhibition, % (no concentration beside the values) | 300,000 compounds, 0.1% hits;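 active means 35 to 45% if threefold the growth effect, above 45% if 1.5-fold the growth effect; inactive means the rest, general growth blockers included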;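 further: wells of about 50 µL received 100 nL stock; 0% = vehicle wells and 100% = reference inhibitor wells; whole bacteria with a GFP reporter of the hypoxia response; strong numbers were not always called active; many hits fall short of the cut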
RN4220 kill: growth inhibition of S. aureus RN4220, primary screen, OD600; 16 h; inhibition, % (concentration not given with the values); 330,000 compounds, 0.33% hits;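 active means z-score of -3 or lower and OD600 up to 0.18 on both plates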;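 further: plate controls were untreated cells for no effect and reference antibiotic for full effect; stock transfer was 100 nL into about 80 µL; one replicate is shown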
BJeLR lethal: MLPCN primary cell-based screen for lethality selective to Ras in HRASV12 cells; BJeLR (HRASV12) viability, CellTiter-Glo ATP luminescence, 48 h; reference of the scale not given here; 300,000 compounds, 0.17% hits; inhibition, % (test concentration not listed);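 active means replicate mean above 50%; inconclusive means above 50% but judged a plate artefact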;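 further: 50 nL library stock added to about 25 µL; numbers are from one replicate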
PrP 5UTR inh: inhibition of PrP 5' UTR reporter expression; cell-based PrP 5' UTR mRNA reporter, plate reader; inhibition, % (concentration not given with the values); 340,000 compounds, 0.35% hits;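 active means every replicate at 50% or more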;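 further: 0 = median of the neutral control wells; tested in H4 reporter cells; numbers are from one replicate; inactives centre near -14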
ugtP null kill: growth inhibition of ugtP-null S. aureus, primary screen, RN4220 ugtP deletion, OD600; 16 h; some inactives read as strong as hits; growth inhibition, % (test concentration not listed); 330,000 compounds, 0.54% hits;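 active means z-score under -3 and OD600 up to 0.15 on both plates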;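 further: plate controls were untreated wells for no effect and antibiotic for full effect; wells of about 80 µL received 100 nL stock; the first replicate is given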
Autofluor counter: flagged as autofluorescent in microsphere protease counterscreen | compound autofluorescence counterscreen, microsphere flow cytometry; stronger effect = higher value | fluorescence intensity (concentration not given with the values) | 360,000 compounds, 3.1% hits | AID 624483;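 active means at least 3 SD above the mean of all compounds, about 16000 in these data; inconclusive means too few beads counted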;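 further: 100 nL of 1 mM stock went into each well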
Mtb hypoxia inh growth: further read-out of Mtb hypoxia inh, marked with its call; growth inhibition, %; measured here: M. tuberculosis growth (absorbance);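 0% = vehicle and 100% = reference antibiotic; read after six days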
* = called active by the depositor; ? = inconclusive; / = not tested or not shown.

The opening 3 records (preview)
item | mol | Mtb hypoxia inh | Mtb hypoxia inh growth | RN4220 kill | BJeLR lethal | PrP 5UTR inh | ugtP null kill | Autofluor counter
1 | COc1ccccc1-c1nnc(SCC(=O)Nc2ccc(Cl)cc2Cl)o1 | 5.9 | 7.6 | 3.4 | -6.3 | -29.9 | -2.0 | 9273
2 | CCCCCc1nc(N)c(C#N)c(-c2ccco2)c1CCCC | / | / | -3.6 | 3.3 | -15.1 | -3.7 | 3604
3 | COC(=O)Cn1cnc2sc(C)c(S(=O)(=O)N3CCN(c4ccccc4OC)CC3)c2c1=O | / | / | -4.2 | 29.3 | -8.3 | -2.1 | 4554

Results, previewed entries included:
item | mol | Mtb hypoxia inh | Mtb hypoxia inh growth | RN4220 kill | BJeLR lethal | PrP 5UTR inh | ugtP null kill | Autofluor counter
1 | COc1ccccc1-c1nnc(SCC(=O)Nc2ccc(Cl)cc2Cl)o1 | 5.9 | 7.6 | 3.4 | -6.3 | -29.9 | -2.0 | 9273
2 | CCCCCc1nc(N)c(C#N)c(-c2ccco2)c1CCCC | / | / | -3.6 | 3.3 | -15.1 | -3.7 | 3604
3 | COC(=O)Cn1cnc2sc(C)c(S(=O)(=O)N3CCN(c4ccccc4OC)CC3)c2c1=O | / | / | -4.2 | 29.3 | -8.3 | -2.1 | 4554
4 | Cc1ccc(-c2csc(NC(=O)c3ccc(F)cc3)c2C(=O)O)cc1 | -0.2 | 0.4 | 25.4 | -1.1 | -27.1 | 14.3 | 3716
5 | CCc1ccccc1NC(=O)CN(C)C(=O)COc1ccc(C)nc1[N+](=O)[O-] | 3.5 | 7.4 | -3.0 | -21.4 | -14.7 | 5.3 | 7685
6 | CCn1nc(C)c(CNC(=O)c2cc(COc3cncc(Cl)c3)on2)c1C | -1.4 | -2.7 | 2.6 | 2.8 | -8.4 | 0.3 | 6161
7 | COc1ccc(CCN(Cc2cc3cccc(C)c3[nH]c2=O)C(=O)N2CCCC2)cc1OC | 5.0 | 3.2 | 9.2 | 4.0 | -14.0 | 10.5 | 3406
8 | COc1ccc(Cl)cc1C(=O)NNC(=O)CNC(=O)c1ccc(C)s1 | 11.6 | 11.7 | 3.7 | / | -17.2 | 6.9 | 3461
9 | CC(=NOC(=O)c1c(-c2ccccc2Cl)noc1C)c1cnccn1 | 7.2 | 8.9 | 7.7 | / | / | 6.7 | /
10 | Cc1ccc(-n2ncc(C(=O)NCC3CCN(C4CCCC4)C3)c2C2CCN(C(=O)OC(C)(C)C)CC2)cc1C (stereo unspecified) | -4.7 | 9.9 | 1.1 | 12.9 | 2.9 | 3.0 | 5584
11 | Cc1cc([N+](=O)[O-])ccc1N(C)C | -3.6 | -7.6 | 4.8 | 2.7 | -14.9 | 2.1 | 10554
12 | O=C(NCCc1ccccn1)c1nc(Cn2ccc([N+](=O)[O-])n2)no1 | -5.9 | 2.1 | 0.9 | 2.6 | -24.2 | 1.8 | 5519
13 | O=C(N/N=C/c1ccccc1)c1ccco1 | / | / | / | 0.9 | -38.3 | / | 5256
14 | COc1ccc(C(=O)Nc2cc(S(=O)(=O)N3CCCCC3)ccc2OC)cc1 | -2.9 | 0.6 | 0.3 | / | -7.3 | -0.2 | ?
15 | O=[N+]([O-])c1ccccc1-c1ccc(CN2CCN(c3ccccc3)CC2)o1 | 14.8 | 7.5 | 5.4 | 11.9 | 1.1 | 23.6 | 3685
16 | CN(c1ccc(C(=O)N2CCN(Cc3ccc4c(c3)OCO4)CC2)cc1)S(=O)(=O)c1ccccc1 | 15.0 | 1.0 | 8.4 | 5.5 | -33.8 | 4.9 | 23288*
17 | CCN1C(=O)c2cccc3c(S(=O)(=O)N(C(=O)c4cccnc4)c4ccc(OC)cc4)ccc1c23 | 8.8 | 2.7 | 2.2 | -22.8 | -8.4 | -9.4 | 1951
18 | C[C@@H]1CCC[C@]2(O[C@@H](CCO)C[C@@H](O)[C@@H]2O)O1 | / | / | / | 6.5 | 2.1 | / | 3186
19 | CC(=O)Nc1ccc(NC(=O)COc2ccc(S(=O)(=O)NC(C)c3ccccc3)cc2)cc1 (stereo unspecified) | 6.5 | 8.1 | -0.2 | 0.1 | -13.8 | 7.3 | 4598
20 | CN(C)c1ccc(C(c2nnnn2C(C)(C)C)N2CCN(C(=O)c3ccco3)CC2)cc1 (stereo unspecified) | / | / | -0.8 | 0.6 | -18.3 | -6.4 | 2677
21 | CC(C)c1ccc(NC(=O)c2cc([N+](=O)[O-])ccc2N2CCOCC2)cc1 | 5.9 | 4.9 | 3.4 | 5.1 | -18.5 | 7.2 | 5659
22 | Cn1nc(C(C)(C)C)c(NC(=O)c2cccs2)c1C(C)(C)C | 4.0 | 14.4 | -2.8 | 6.2 | -5.7 | -1.4 | 4740
23 | CC1CCN(S(=O)(=O)c2ccc(NC(=O)Cc3cccs3)cc2)CC1 | 0.3 | 0.5 | -0.5 | 4.8 | -1.2 | 0.8 | 20322*
24 | O=S(=O)(c1ccc(N2CCN(Cc3ccc4c(c3)OCO4)CC2)nc1)N1CCOCC1 | 6.2 | 3.1 | 1.3 | 23.1 | / | 5.4 | /
25 | O=C(O)c1cccc(Cn2c(Cl)c(/C=N/NC(=O)c3ccc(O)cc3)sc2=O)c1 | / | / | / | -0.1 | -11.9 | / | 6279
26 | CCCCNC(=O)Nc1ccccn1 | / | / | 3.2 | 6.2 | -10.7 | 0.1 | 5879
27 | S=C(Nc1ccc2cn[nH]c2c1)Nc1ccccc1Cl | 8.4 | 9.2 | 0.2 | -3.9 | -42.1 | 2.3 | 2179
28 | COc1ccc(-c2ccc3c(c2)c(C#Cc2ccsc2)c(-c2cc(OC)cc(OC)c2)n3C)cc1 | 19.2 | 8.2 | 5.3 | / | -8.0 | 0.9 | 2684
29 | Cc1noc(C)c1C(=O)OC(C(=O)NC1CCCC1)c1ccc(F)cc1 (stereo unspecified) | 6.8 | 3.9 | 4.1 | 1.0 | -12.8 | -0.7 | 22114*
30 | CCCN(CCC)C(=O)Cn1c(=O)n(CCCCC(=O)NCc2ccco2)c(=O)c2ccccc21 | / | / | -3.3 | -9.6 | -17.5 | -9.2 | 4193
31 | COc1nc(N)nc(N)c1NS(=O)(=O)c1ccc(C)cc1 | -2.7 | 1.0 | 4.3 | -2.2 | -15.1 | -2.7 | 5672
32 | Cc1ccccc1NC(=O)c1sc2nc3c(c(-c4ccco4)c2c1N)CCC3 | / | / | 18.7 | 11.7 | -0.2 | -14.4 | 4210
33 | CC1(C)OC2CC3C4CCC5=CC(=O)CCC5(C)C4(F)C(O)CC3(C)C2(C(=O)CO)O1 (stereo unspecified) | -2.5 | 9.4 | 0.4 | / | -8.9 | -3.7 | 3975
34 | Cc1ccnn2c(-c3ccccc3)c3c(=O)n(C)c(=O)n(C)c3c12 | 8.0 | 2.0 | 3.9 | -2.8 | / | 4.6 | /
35 | CCOc1ccccc1CNC(=O)C(C)n1nc(C)c2c(C)n(-c3ccccc3)nc2c1=O (stereo unspecified) | 11.1 | 9.9 | -0.4 | -1.4 | -11.8 | 1.0 | 5320
36 | COC(=O)C1=C(C)N=c2sc(=Cc3cccs3)c(=O)n2C1c1cccs1 (stereo unspecified) | 8.3 | 2.2 | -0.4 | / | / | -17.1 | /
37 | COc1ccccc1N(CC(=O)NC1CCCCC1)C(=O)Cn1nnc(-c2ccc(C)o2)n1 | -12.8 | -6.3 | -0.4 | -12.2 | -1.7 | -0.6 | 5969
38 | Cc1cc(C)nc(SC(C)C(=O)N/N=C/c2cccs2)n1 (stereo unspecified) | / | / | / | -1.3 | -6.6 | / | 4456
39 | O=C(OCC(=O)N1CCCCCC1)c1ccc(Br)c(S(=O)(=O)N2CCOCC2)c1 | 8.6 | 8.0 | 0.6 | / | -27.9 | 2.6 | 3525
40 | NS(=O)(=O)c1cccc(NC(=O)c2cccc3c(Br)cccc23)c1 | 12.4 | 4.7 | -2.1 | 6.7 | -7.0 | 8.5 | 4071
41 | COCOc1cc(O)c(C(=O)/C=C/c2ccc(OCOC)c(OCOC)c2)c(OCOC)c1 | / | / | 2.7 | -1.6 | / | 4.4 | 5746
42 | CC(C)COc1ccc(C(=O)OCCN2CCOCC2)c(O)c1 | / | / | 5.1 | -2.2 | -5.0 | 31.5 | 2151
43 | COc1ccc(S(=O)(=O)N2CCCCCC2)cc1C(=O)OCC(=O)NC(N)=O | / | / | 4.5 | 6.4 | -9.0 | 46.8 | 2547
44 | CC1CN(Cc2nc3c(c(=O)n(C)c(=O)n3C)n2CCc2ccccc2)CC(C)O1 (stereo unspecified) | / | / | 0.6 | -0.8 | -14.7 | -1.1 | 3481
45 | O=C(CN1C(=O)COc2ccc(Cl)cc21)Nc1nccs1 | 3.2 | -4.6 | 2.6 | / | -5.5 | -0.9 | /
46 | COCCCNC(=O)CCNS(=O)(=O)c1ccc(C)cc1 | -4.8 | 3.7 | 3.6 | 0.2 | 6.9 | 1.0 | 11338
47 | c1ccc(SCCCCNC2CCCC2)cc1 | -1.8 | -1.9 | 3.6 | -6.9 | -4.1 | 4.9 | 2545
48 | COc1cc(/C=C/C(=O)OCC(=O)Nc2cc(S(=O)(=O)N3CCCC3)ccc2Cl)cc(OC)c1OC | 8.9 | 9.8 | 5.4 | / | -5.0 | -0.8 | 3652
49 | Cc1ccc(NC(C)C(=O)N/N=C/c2ccc([N+](=O)[O-])s2)cc1 (stereo unspecified) | / | / | / | 6.3 | -4.0 | / | 4858
50 | COc1ccc(CN(C)Cc2cc(=O)oc3cc(C)c(C(C)C)cc23)cc1OC | 4.8 | 8.6 | 1.8 | -15.4 | -11.0 | 15.8 | 5787
51 | Cc1ccc(CCNC(=O)CCc2nc3ccccc3[nH]2)cc1 | -0.2 | -5.8 | -5.9 | 11.0 | -11.7 | -5.0 | 10006
52 | COc1cccc(CNC(=O)C2CCCN(S(=O)(=O)c3c(C)noc3/C=C/N(C)C)C2)c1 (stereo unspecified) | -0.3 | 0.4 | -0.1 | 8.7 | -20.4 | -0.1 | 4873
53 | O=C(Cc1cccs1)N1CCN(c2ccccn2)CC1 | -0.2 | 4.3 | 16.1 | -6.7 | -0.8 | 4.1 | ?
54 | O=C(Cn1nnc2ccccc21)c1ccc([N+](=O)[O-])cc1 | 6.2 | 1.2 | 10.1 | -2.2 | -19.5 | 2.8 | 3600
55 | O=C(CNC(=O)c1ccco1)OCC(=O)c1ccccc1Cl | 4.8 | -4.2 | 4.1 | 2.8 | -13.1 | 5.5 | 2520
56 | O=C(NC1CCSc2ccccc21)c1cc(S(=O)(=O)N2CCOCC2)ccc1Cl (stereo unspecified) | 0.7 | -9.8 | 1.1 | 0.8 | 2.7 | 6.2 | ?
57 | C=CCc1cccc2cc(C(=O)Nc3cccc(C(=O)O)c3)c(=O)oc12 | 4.9 | -1.2 | 4.3 | 1.5 | / | 8.0 | /
58 | CCOC(=O)c1ccc(NC(=O)CCOc2ccc(OC)cc2)cc1 | 11.0 | 7.0 | 2.6 | 0.3 | -29.6 | 2.9 | 9425
59 | Cc1[nH]c2ccccc2c1/C=C(\C#N)C(=O)NCc1ccccc1 | 10.7 | 5.6 | 7.1 | -11.1 | -9.9 | -3.0 | 11132
60 | CCOc1ccc(NC(=O)C(C)Sc2nnnn2C)cc1 (stereo unspecified) | 17.5 | 3.3 | 2.9 | 3.4 | -20.5 | 5.0 | 4349

(list continues)
item | mol | Mtb hypoxia inh | Mtb hypoxia inh growth | RN4220 kill | BJeLR lethal | PrP 5UTR inh | ugtP null kill | Autofluor counter
61 | CCN(CC)S(=O)(=O)c1ccc(C)c(NS(=O)(=O)c2cc(/C=C/C(=O)O)cc(OC)c2OC)c1 | 13.3 | 6.6 | 7.9 | -6.2 | -15.0 | -74.0 | 3880
62 | Cn1c(C(=O)NC2CC2)cc2c(=O)n(C)c3ccccc3c21 | / | / | -3.0 | 2.2 | 0.5 | -6.8 | 4548
63 | CCOC(=O)Cc1cnc(NC(=O)NC(C(=O)OCC)(c2ccccc2)C(F)(F)F)s1 (stereo unspecified) | 3.8 | -2.5 | 0.7 | -1.0 | -5.7 | -0.9 | 4131
64 | Cc1ccc2nc(SCC(=O)Nc3cccnc3Cl)[nH]c2c1 | 9.8 | -2.2 | 3.3 | / | -14.2 | -2.3 | 3834
65 | COc1ccc(-c2noc(C(=O)NCc3ccccc3Cl)n2)cc1OC | 3.3 | 0.6 | 2.1 | / | -1.7 | 8.6 | 2998
66 | CCOc1ccc(NC(=O)CCC(=O)NNC(=O)Nc2cccc(Cl)c2)cc1 | -7.0 | -1.5 | 2.5 | 0.5 | 5.3 | 1.0 | 3843
